STK33 inh = inhibitors of purified STK33 kinase, primary screen, biochemical, ADP-Glo luminescence, homogeneous, cell-free; Serine/threonine-protein kinase 33 (Homo sapiens), Q9BYT3; 0.073% of 320,000 active; AID 2661, 2010; inhibition, % at 10 µM; MBP phosphorylation;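 active = inhibition at or above 25%, using the most active replicate where run in duplicate; inactive = inhibition below 25%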
Target sequence (Q9BYT3 whole entry, looked up): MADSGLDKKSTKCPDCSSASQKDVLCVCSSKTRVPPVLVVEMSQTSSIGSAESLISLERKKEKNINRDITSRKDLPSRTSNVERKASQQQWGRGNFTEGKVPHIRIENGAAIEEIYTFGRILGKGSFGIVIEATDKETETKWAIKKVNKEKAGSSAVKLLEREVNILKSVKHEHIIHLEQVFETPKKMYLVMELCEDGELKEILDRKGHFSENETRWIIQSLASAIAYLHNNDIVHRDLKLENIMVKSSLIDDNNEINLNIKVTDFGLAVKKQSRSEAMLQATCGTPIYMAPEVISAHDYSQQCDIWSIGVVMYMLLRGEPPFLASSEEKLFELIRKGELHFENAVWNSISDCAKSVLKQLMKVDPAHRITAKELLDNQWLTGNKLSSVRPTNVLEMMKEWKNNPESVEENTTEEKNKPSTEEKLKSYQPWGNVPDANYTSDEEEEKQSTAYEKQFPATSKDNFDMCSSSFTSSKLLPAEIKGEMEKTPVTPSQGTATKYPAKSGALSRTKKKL
Kir21 block = inhibitors of mouse Kir2.1 inward-rectifier potassium channel; Inward rectifier potassium channel 2 (Mus musculus), P35561; HEK293-Kir2.1, FluxOR thallium flux fluorescence; stronger effect = lower value; AID 1672, 2009; 0.85% of 310,000 active; B-score at 10 µM;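 active = fluorescence ratio B-score at or below minus 3 SD of library scores, with starting-brightness B-score within 2 SD, cut at about -4.2 in these data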;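 also: channel flux triggered by added potassium and thallium sulfate stimulus; B-score of peak minus minimum fluorescence over baseline after thallium stimulus; more negative B-score means stronger Kir2.1 block with less thallium influx; some compounds called inactive have numbers as strong as hits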
Target sequence (P35561 whole entry, looked up): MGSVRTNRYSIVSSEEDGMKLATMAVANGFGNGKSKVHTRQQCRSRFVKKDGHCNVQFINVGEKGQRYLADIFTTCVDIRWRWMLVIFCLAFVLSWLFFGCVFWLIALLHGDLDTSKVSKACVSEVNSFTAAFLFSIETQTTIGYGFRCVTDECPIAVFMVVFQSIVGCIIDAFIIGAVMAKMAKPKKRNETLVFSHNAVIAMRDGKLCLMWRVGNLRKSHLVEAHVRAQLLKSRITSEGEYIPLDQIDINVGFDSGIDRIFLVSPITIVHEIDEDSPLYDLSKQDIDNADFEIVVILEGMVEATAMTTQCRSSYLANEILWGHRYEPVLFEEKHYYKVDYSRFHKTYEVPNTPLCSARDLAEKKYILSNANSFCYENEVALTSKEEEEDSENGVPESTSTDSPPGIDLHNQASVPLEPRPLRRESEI
* hit, by the source's call; x = no result given.

SMILES | STK33 inh | Kir21 block
Cc1occc1-c1nnc(-c2cc([N+](=O)[O-])cc([N+](=O)[O-])c2)o1 | 0.4 | -0.04
CCCn1c(C2CCCN2c2nc(C)cs2)nc2cc(Cl)c(Cl)cc21 (configuration not stated) | 1.0 | -0.25
COc1ccc(CC(C)NS(=O)(=O)c2ccc3c(c2)CCN3S(C)(=O)=O)cc1OC (configuration not stated) | 4.4 | -1.6
CCC(C)C(NC(N)=O)C(=O)Nc1ccc(C(=O)OC)cc1 (configuration not stated) | -0.4 | -0.14
COCCCNC(=O)Cn1c(=O)oc2cc(S(=O)(=O)N3CC(C)CC(C)C3)ccc21 (configuration not stated) | -0.7 | 0.08
O=C(CN1CCC(NC(=O)c2cccc(F)c2)CC1)NCc1ccccc1F | -4.8 | 0.79
CCOc1cc(/C=N/NC(=O)COc2ccc(C)cc2)ccc1OC(=O)c1cccs1 | -0.1 | 2.5
COc1ccccc1CNC(=O)C1CCN(S(=O)(=O)c2ccc3c(c2)CC(C)N3C(C)=O)CC1 (configuration not stated) | -1.1 | -0.57
Cc1c(C(=O)N(C)C2CC(C)(C)NC(C)(C)C2)oc2c(F)cccc12 | -1.8 | 0.98
Cc1cc(C)c(OCCCON2C(=O)CCC2=O)c(Br)c1 | -0.2 | -0.76
CN(C)CCN(Cc1ccccc1)C(=O)C1CCN(c2ncnc3c2nc2n3CCCCC2)CC1 | 1.5 | 2.5
CC(=O)Nc1ccc(S(=O)(=O)N2CCC(C(=O)NCc3cccnc3)CC2)cc1 | -0.3 | 0.34
Cc1cccc(C)c1NC(=O)C1(NC(=O)Cn2cccc([N+](=O)[O-])c2=O)CCCCC1 | -1.6 | 0.15
Cc1ccc(-n2c(-c3ccncc3)n[nH]c2=S)c(C)c1 | -0.2 | -1.2
COc1ccccc1NC(=O)c1ccc(-n2cccn2)c([N+](=O)[O-])c1 | -2.5 | 0.52
C=CCOc1cccc(CNCc2ccncc2)c1 | 5.4 | -0.48
CC[C@@H]1[C@H]2CCCC(=O)N3CC[C@@H](C[C@@H]1Nc1ccccc1)[C@@H]23 | -0.4 | -1.1
COCCNC(=O)CN1C(=O)/C(=C/c2ccccc2)Oc2ccc(C(C)(C)C)cc21 | -1.5 | -0.38
CCOC(=O)N1CCN(S(=O)(=O)c2ccc([N+](=O)[O-])cc2)CC1 | -2.6 | -2.5
CCc1ccc(NC(=S)N2CCCC2)cc1 | 0.8 | 0.5

Whole records as entered above:
`CC(=O)Nc1ccc(S(=O)(=O)N2CCC(C(=O)NCc3cccnc3)CC2)cc1` across the screens: STK33 inh = -0.3; Kir21 block = 0.34
`CN(C)CCN(Cc1ccccc1)C(=O)C1CCN(c2ncnc3c2nc2n3CCCCC2)CC1` across the screens: STK33 inh = 1.5; Kir21 block = 2.5
`CC[C@@H]1[C@H]2CCCC(=O)N3CC[C@@H](C[C@@H]1Nc1ccccc1)[C@@H]23` across the screens: STK33 inh = -0.4; Kir21 block = -1.1

(cont.)
SMILES | STK33 inh | Kir21 block
O=C(NCCc1c[nH]c2ccccc12)c1ccc(-n2cnnn2)cc1 | 0.8 | 0.03
Cc1onc(-c2ccccc2)c1C(=O)Nc1ccc(S(=O)(=O)Nc2nccs2)cc1 | -0.4 | 1.9
CC(/C=N/NC(=O)c1cccc([N+](=O)[O-])c1)=C\c1ccccc1 | -2.0 | 2.8
CN(C)C(CNC(=O)c1ccc2ccccc2n1)c1ccccc1 (configuration not stated) | 0.5 | -1.1
COc1cc(S(=O)(=O)N2CCOCC2)ccc1NC(=O)c1cc2c(s1)CCC2 | -0.9 | -0.05
CC1CCCC(NC(=O)CSc2nccn2C)C1C (configuration not stated) | 0.8 | 0.6
CSc1nnc(CCCCCNC(=O)OC(C)(C)C)o1 | -0.5 | 0.82
COc1ccc(/C=N\NC(=O)c2ccc(Cn3cc(Br)c([N+](=O)[O-])n3)o2)c(OC)c1C | -0.8 | -0.39
Cc1cccc(NC(=O)c2cccs2)n1 | -0.8 | 0.58
COc1ccc(C2=NS(=O)(=O)N(C)C(C(=O)NCc3ccccc3)=C2)cc1OC | -0.8 | -0.05

Three structures from above, ordered by length of the SMILES, rising:
SMILES | STK33 inh | Kir21 block
CCC(C)C(NC(N)=O)C(=O)Nc1ccc(C(=O)OC)cc1 (configuration not stated) | -0.4 | -0.14
O=C(NCCc1c[nH]c2ccccc12)c1ccc(-n2cnnn2)cc1 | 0.8 | 0.03
Cc1onc(-c2ccccc2)c1C(=O)Nc1ccc(S(=O)(=O)Nc2nccs2)cc1 | -0.4 | 1.9

Next part
SMILES | STK33 inh | Kir21 block
O=C(c1cc(COc2c(F)cccc2F)on1)N1CCCCCC1 | -0.9 | -0.08
COc1ccc2c(c1)c1ncn(CC3CCCO3)c(=O)c1n2C (configuration not stated) | 1.9 | -1.1
O=C(NC1CCN(Cc2ccccc2)CC1)c1cccc(S(=O)(=O)Nc2cc(C(F)(F)F)ccc2Cl)c1 | -0.5 | -0.14
O=C(NCc1ccco1)C1CCN(c2ccc(N3CCOCC3)nn2)CC1 | -1.3 | -0.05
Cc1ccc(S(=O)(=O)N2CCOCC2)cc1NC(=O)CN1CCC(Cc2ccccc2)CC1 | -0.5 | 1
CC(C)Nc1ncnc2c1cnn2-c1ccccc1 | 0.2 | -0.04
COC(=O)c1ccc(NC(=O)CNc2ccccc2)cc1 | 0.0 | 1.1
O=C(NCc1ccncc1)C1CCCN(S(=O)(=O)c2ccc(Br)cc2)C1 (configuration not stated) | -1.5 | -0.79
Cc1cc(NC(=O)c2ccc([N+](=O)[O-])cc2Cl)no1 | -1.6 | -0.62
COc1cc(/C=C2/C(C)=C(C#N)c3nc(N)c(C#N)c(C)c32)ccc1OCC(=O)O | 2.1 | 1.4
COc1ccccc1N1CCN(CCCCN2C(=O)c3ccccc3C2=O)CC1 | -0.7 | 1.9
Cc1cccc(N2CCN(S(=O)(=O)c3ccc4c(c3)CC(=O)N4C)CC2)c1C | -0.6 | -0.37
Cc1cc(NC(=O)CSc2nc(-c3ccc(F)cc3)cs2)no1 | x | 0.89
CS(=O)(=O)Nc1ccc2c(c1)OCC(=O)N2Cc1ccccc1 | -0.7 | -0.07
CCOC(=O)C1(CC2CCCCO2)CCN(S(=O)(=O)c2cccc(F)c2)CC1 (configuration not stated) | -1.8 | -0.14
CNC(=O)CSc1nnc(-c2cc(C)cc(C)c2)o1 | -3.4 | 0.52
O=C(Nc1ncccc1O)c1ccc(C(=O)c2ccccc2)cc1 | x | -1.1
COc1ccc(C)cc1NC(=O)CNC(C)C(=O)Nc1cc(Cl)ccc1Cl (configuration not stated) | -0.9 | -0.14
Cc1ccc(S(=O)(=O)NC(CC(C)C)C(=O)N2CCOCCOCCOCCOCC2)cc1 (configuration not stated) | -1.6 | 0.1
Cc1cc(C)nc(N(C#N)C(C)C(=O)N(C)C)n1 (configuration not stated) | -2.3 | 0.14
COc1cc(NC(=S)NCCCN(C)C)c(OC)cc1NC(=O)c1ccco1 | 1.8 | 1.6
CCCCCn1c(N)c(-c2nc3ccccc3s2)c2c([N+](=O)[O-])nn(CC)c(=O)c21 | 0.6 | 0.89
COc1ccc(OC)c(NC(=O)CN(Cc2ccccc2)S(C)(=O)=O)c1 | 0.2 | -0.38
CSc1ncc(-c2ccccc2)cn1 | 0.4 | -0.19
CCC(C)c1c(O)nc(SCc2ccccc2)[nH]c1=O (configuration not stated) | 0.2 | -0.28
Cc1ccc2nc(NC(=O)C3CCCN3C(=O)OC(C)(C)C)sc2c1 (configuration not stated) | 0.4 | 0.07
Cc1ccc(Oc2nc(CN3CCOCC3)nc3sc4c(c23)CCC(C)C4)cc1C (configuration not stated) | 0.2 | 0.12
COc1ccc2nc(N3CCN(C(=O)C4COc5ccccc5O4)CC3)sc2c1 (configuration not stated) | -0.9 | -0.49
CCCN1CCN(C(=O)Cn2ncc3ccccc32)CC1 | -1.9 | -1.1
COC(=O)C(Cc1ccccc1)NC(=O)CCCC(=O)NCc1cccc(OC)c1 (configuration not stated) | -2.4 | 0.45
COCCCNC(=O)CCn1nc(-c2ccc(Cl)cc2)ccc1=O | -1.2 | -1.1
COc1ccc(/C=C(\C#N)C(=O)NCc2ccccc2)cc1 | -0.5 | -0.01
COC(=O)c1c[nH]n2c(=O)c(Cc3ccc(F)cc3Cl)c(C)nc12 | -0.4 | 0.58
Cc1ccc(OCc2cnc(Cl)s2)c(C)c1 | -1.0 | 0.33
O=C(O)COc1ccc(C(=O)Cc2ccc3c(c2)OCCCO3)c(O)c1 | 2.1 | 0.02
CCOc1ccc2c(c1)-c1c(ssc1=S)C(C)(C)N2 | -0.1 | 0.61
COC(=O)CCC(=O)Nc1cc(S(=O)(=O)Nc2ccc(Cl)cc2)ccc1N1CCOCC1 | -2.2 | -1.1
CC(OC(=O)c1nsc(Cl)c1Cl)C(=O)NC1CCCCC1 (configuration not stated) | -0.4 | 0.55
COC(=O)c1ccccc1NC(=O)CSc1nnc(-c2ccncc2)o1 | 0.1 | 0.18
O=C(NCc1ccc2c(c1)OCO2)c1ccc(C2SCC(=O)N2Cc2ccco2)cc1 (configuration not stated) | -0.9 | -2
COc1ccc(CCNC(=O)C/C(C)=N/NC(=O)Cc2cccc3ccccc23)cc1OC | -1.1 | -0.26
CCN1CCC(N2CCN(c3ccc(Cl)cc3)CC2)CC1 | -1.2 | -0.66
O=S(=O)(c1ccccc1)N1CCN(CCO)CC1 | -0.3 | 1.6
C/C(=N\NC(=O)C1CC1)c1ccc(C)cc1C | -1.0 | 0.62
Cc1ccc(/C=C2\SC(=S)N(C3CCS(=O)(=O)C3)C2=O)o1 (configuration not stated) | -1.7 | 0
CN(C)/C=C/C(=O)c1ccc(Oc2ccccc2)cc1 | 1.2 | 0.29
CCOC(=O)c1ccc(NS(=O)(=O)c2ccc(Cl)nc2)cc1 | -1.5 | 1.3
CC1CC(NC(=O)C2(C)CC2(Cl)Cl)CC(C)(C)C1 (configuration not stated) | 1.4 | -0.43
COc1ccccc1NC(=O)C1CCCN1S(=O)(=O)c1ccc(Cl)cc1 (configuration not stated) | 1.7 | 0.19
CN1CCN(c2ccc(S(=O)(=O)N3CCCCC3)cc2NC(=O)/C=C/c2ccc(Cl)c([N+](=O)[O-])c2)CC1 | x | 1.2

Remaining list, next part:
SMILES | STK33 inh | Kir21 block
COC(=O)C/C(N)=C(\C#N)C(=O)OC | -0.5 | -0.81
COc1cc2c(=O)n(Cc3ccco3)c(=O)n(CC(=O)c3ccc(Br)cc3)c2cc1OC | -0.8 | 1.6
COc1cc2c(cc1OC)C(c1ccccc1F)NCC2 (configuration not stated) | -4.4 | 0.11
COc1ccc(C(=O)N/N=C/c2ccc(OC)c(CN3CCN(c4ccc(F)cc4)CC3)c2)cc1 | -1.8 | 1
COc1ccc(C2c3c(ccc4ccccc34)Oc3ncn4nc(-c5ccco5)nc4c32)cc1OC (configuration not stated) | 0.0 | 0.46
COC(C(=O)Nc1ccnn1C1CCN(Cc2cccc(C)n2)CC1)c1ccccc1 (configuration not stated) | -3.1 | 1.9
CC(C)(C)c1ccc(/C=C2\SC(=O)N=C2N)cc1 | 0.4 | -0.03
Cc1ccc(-c2n[nH]c(=S)n2/N=C/c2ccncc2)cc1 | -0.4 | -0.55
Cc1ccc2oc(=O)c(/C=C(\O)CC(C)C)nc2c1 | -1.6 | -1.1
COc1cc(/C=C(\NC(C)=O)C(=O)O)cc(OC)c1OC | -0.5 | -1.4
CCOc1ccccc1/C=N/NC(=O)c1cc(C(C)C)[nH]n1 | 6.5 | -0.04
CC(C)C(=O)NN(C(=O)C(C)C)c1nc2ccccc2s1 | 1.0 | 0.73
CN(CC(=O)Nc1ccc(Cl)cc1)c1ccc(S(=O)(=O)N2CCCCC2)cc1[N+](=O)[O-] | -1.6 | -1.7
Cc1cc2cc(CNC(=O)c3ccc(S(=O)(=O)N4CCCC4)cc3)ccc2n1C | 1.3 | 1.6
Oc1ccc(C[C@H]2CNCCN2CC2(c3ccccc3)CC2)cc1 | -1.0 | -1.1
O=C(NCc1ccc2c(c1)OCO2)c1ccc(CSCc2ccc(Cl)cc2)o1 | -1.5 | -0.07
Cc1ccc(S(=O)(=O)N(C)C)cc1NC(=O)COC(=O)C1CCCC1 | x | -1.1
COc1ccccc1NC(=O)[C@@H]1CCCN1S(=O)(=O)c1ccc(Cl)cc1 | -0.5 | x
Cc1ccc(-n2cc(C(=O)O)c(=O)cc2C)c(C)c1 | -1.8 | 0.56
Cc1cc(OC(C)C(=O)NCC(O)c2ccccc2)c2c(C)cc(=O)oc2c1 (configuration not stated) | 0.3 | 0.43
O=C(c1ccccc1OCc1ccccc1Br)N1CCN(c2ncccn2)CC1 | -0.9 | -0.38
O=C(c1ccc(N2C(=O)C3CC=C(Cl)CC3C2=O)cc1)N1CCOCC1 (configuration not stated) | 0.8 | -0.21
CCN1CCN(C(=O)c2ccc(CS(=O)(=O)Cc3ccccc3F)o2)CC1 | 1.4 | -0.2
CCOC(=O)c1cc(C)sc1NC(=O)C1CCC1 | 1.0 | 0.67
CCCCOP(=O)(c1ccc(N(C)C)cc1)C(O)c1ccncc1 (configuration not stated) | -0.5 | -1.2
CCCCC(=O)Nc1ccc2c(c1)nc(CCN1CCN(c3ccccn3)CC1)n2C | 0.0 | 0.31
N=C1C(=O)OCC1c1cc(Cl)ccc1NC(=O)Nc1ccccc1 (configuration not stated) | -1.4 | -3.9
O=C(CSc1nnc(-c2ccncc2)n1CC1CCCO1)Nc1nccs1 (configuration not stated) | 0.9 | 0.18
CN(C)CCNC(=O)COc1cccc2c1OC(C)(C)C2 | -0.3 | 0.36

High-throughput results from PubChem BioAssay.

An excerpt, and most or all hits are left out here.
